# Screens as filed in PubChem.
# Rango-impB inh – qHTS Assay for Inhibitors of Rango (Ran-regulated importin-beta cargo) - Importin beta complex formation | Rango CFP/YFP FRET sensor + importin beta, 45 min | Potency, µM (series often up to 92.2 µM), for inactives: top-dose inhibition of complex formation | actives 0.031% (n = 340,000) | AID 540263, 2011; active = rising FRET ratio curve, often small or poorly fitted; inconclusive = mostly compound fluorescence or quenching in the first reads; inactive = flat curves in all reads;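 note: potency is the fitted concentration of half-maximal effect; 0% = DMSO wells and 100% = buffer wells lacking importin beta; nearly all actives have a fitted effect of over 15% in size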
# Target sequence (Q14974 whole entry, looked up): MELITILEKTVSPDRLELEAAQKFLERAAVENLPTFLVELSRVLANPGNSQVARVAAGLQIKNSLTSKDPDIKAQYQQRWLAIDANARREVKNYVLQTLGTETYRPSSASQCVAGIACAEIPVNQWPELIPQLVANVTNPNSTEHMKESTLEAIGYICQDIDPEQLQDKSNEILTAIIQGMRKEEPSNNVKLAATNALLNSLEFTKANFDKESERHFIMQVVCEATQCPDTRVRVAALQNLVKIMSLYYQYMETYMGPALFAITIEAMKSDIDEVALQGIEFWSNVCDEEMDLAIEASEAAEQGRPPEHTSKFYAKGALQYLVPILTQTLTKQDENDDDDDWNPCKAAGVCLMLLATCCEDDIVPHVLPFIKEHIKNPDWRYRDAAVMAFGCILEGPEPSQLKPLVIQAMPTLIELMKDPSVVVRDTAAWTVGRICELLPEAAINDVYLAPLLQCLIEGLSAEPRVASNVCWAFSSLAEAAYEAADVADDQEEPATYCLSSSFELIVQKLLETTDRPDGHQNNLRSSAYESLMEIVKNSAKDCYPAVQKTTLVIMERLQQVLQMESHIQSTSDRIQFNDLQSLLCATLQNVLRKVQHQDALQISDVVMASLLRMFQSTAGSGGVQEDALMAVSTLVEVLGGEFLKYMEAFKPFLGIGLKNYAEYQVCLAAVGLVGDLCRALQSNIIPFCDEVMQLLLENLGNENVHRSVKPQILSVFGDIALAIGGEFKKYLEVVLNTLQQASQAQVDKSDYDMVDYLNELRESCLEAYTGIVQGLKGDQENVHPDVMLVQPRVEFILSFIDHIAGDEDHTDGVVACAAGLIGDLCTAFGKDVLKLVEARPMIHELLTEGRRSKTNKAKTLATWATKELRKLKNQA
#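 Inhibition scored from the CFP 486 nm/YFP 530 nm FRET ratio 45 min after adding 0.125 microM importin beta to 50 nM Rango biosensor preincubated 5 min with compound (room temperature, PBS with DTT, Tween-20, BSA). No-importin wells as positive control.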
# GLA inh pH 4.5 – qHTS Assay for Inhibitors of Human alpha-Galactosidase at pH 4.5; Alpha-galactosidase A (Homo sapiens), P06280; purified enzyme, 4-MU-alpha-Gal fluorescence, pH 4.5; activity change, negative = inhibition, % at 105 µM; 230,000 tested, under 10 active; inconclusive = small, poorly fitted or top-dose-only inhibition, or a rising curve; inactive = flat fitted curve, though single readings scatter; no compound was filed as active;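 note: 0% = full activity with enzyme and -100% = basal without enzyme; dose as in the result columns while the protocol names 77 µM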
# Rango release inh – qHTS Assay for Inhibitors of RanGTP induced Rango (Ran-regulated importin-beta cargo) - Importin beta complex dissociation | Biochemical FRET Rango-importin beta, RanGTP-induced dissociation | AID 540253, 2011 | actives 0.071% (n = 340,000) | Potency, µM (series often up to 46.1 µM), without a hit: at the highest dose activity change, negative = inhibition; active means falling FRET ratio curve, often poorly fitted, with flat reads before Ran was added; inconclusive means other falling curves, or compound fluorescence or quenching; inactive means flat or rising ratio curve;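 note: potency is the fitted concentration of half-maximal effect; % of control where 0% means no effect; nearly all actives have a fitted effect of over 45% in size; -100% = wells without RanGTP and RCC1; the record marks most hits as doubtful in a second field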
#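 Compounds sat 5 min at room temperature with 0.1 uM Rango biosensor plus 0.25 uM importin beta, then FRET pre-read. RanGTP-RCC1 (0.6 uM Ran, 2mM GTP, 0.2 uM RCC1) added for 45 min, and the CFP/YFP post-read measured blocked complex dissociation.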
# miR-21 reporter – qHTS Assay for Modulators of miRNAs and/orActivators of miR-21; HeLa miR-21 FLuc reporter, luciferase, 48 h; Potency, µM (top dose mostly 38.3 µM), without a hit: at the top dose reporter change, positive = more light; 340,000 tested, under 10 active; AID 2288, 2010; active = well fitted rising curve with a large enough effect; inconclusive = small, poorly fitted or top-dose-only effect; inactive = no such curve, though single readings can be large or run the other way;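 note: % of control where 0% means no effect; miR-21 action dims this reporter so a rising signal means less miR-21 action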
#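 HeLa miR-21-FLuc reporter line, endogenous miR-21; 2000 cells/well in DMEM/10% FBS; compound titration up to ~40uM final, 48 h, 37 degree Celsius; luciferase detection reagent, 15 min lysis, CCD luminescence.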
# The depositor's hits bear a star; ? = inconclusive; · = no result given; & = joins results of further samples. A portion of the library; the hit share may differ from the screen's.
SMILES,Rango-impB inh,GLA inh pH 4.5,Rango release inh,miR-21 reporter
Cc1nn(CC(=O)N(C)C)c(C)c1S(=O)(=O)N1CCOCC1,2.0%,·,-19%,·
CCOC(=O)/C=C/c1ccccc1S(=O)(=O)NC(C)(C)C,-0.5%,·,-10%,·
COC(=O)N/N=C/c1cn(CCOc2ccccc2)c2ccccc12,2.1%,-19,1%,-25%
COc1ccc(CCNC(=O)CCS(=O)(=O)c2ccc3c(c2)NC(=O)CS3)cc1OC,0.6%,·,-9%,-2%
O=C(N/C(=C/c1ccc([N+](=O)[O-])cc1)C(=O)N1CCOCC1)c1ccco1,0.8%,·,-13%,-3%
CCOC(=O)c1n[nH]c(=O)c2ccccc12,-0.6%,-2,3%,0%
Cc1cc2nc(C)c3c(n2n1)CCC3,-3.0%,7,2%,-2%
COCCOC(=O)C1=C(C)N=C2SCCC(=O)N2C1/C=C/c1ccccc1 (centres undefined),-2.2%,-4,0%,-8%
O=C(CSc1nnc(CNC(=O)c2cccc(C(F)(F)F)c2)o1)NC1CCCC1,0.8%,·,10%,0%
CCCN1Cc2cccc(C(=O)Nc3ccc4c(c3)OCCO4)c2C1=O,3.8%,-10,0%,-16%
CCOC(=O)N1CCN(CC(O)c2ccc3cc[nH]c3c2)CC1 (centres undefined),-2.4%,-3,-5%,-1%
O=C(COC(=O)c1ccncc1)Nc1cc(Cl)c(Cl)cc1Cl,·,2,·,-7%
COc1cccc(NC(=O)CN(C)C(=O)CC2CC3CCC2C3)c1 (centres undefined),0.3%,·,12%,·
O=S(=O)(c1ccc(NC(=S)NC2CCCC2)cc1)N1CCCC1,0.8%,-1,-6%,-2%
COc1ccc(NC(=O)CSc2nnc(CCC(=O)O)c(=O)n2N)cc1,0.9%,11,14%,-2%
O=C(NCc1ccncc1)c1cc(C(=O)C2CC2)c[nH]1,-0.1%,1,-6%,4%
COc1ccc2oc(=Nc3ccccc3)c(-c3nc4ccccc4[nH]3)cc2c1,?,-4,?,-52%
C/C(=N/Nc1nc(C)cc(C)n1)c1ccc(Br)cc1,0.0%,·,0%,19%
COC1CCCN(Cc2c(C(=O)N3CCN(C4CCCCC4)CC3)nc3ccccn23)C1 (centres undefined),?,·,?,-3%
CCOC(=O)C1CCN(C(=O)Cn2ncc3c([nH]c4ccccc43)c2=O)CC1,-3.2%,·,8%,0%&0%
Nc1nn2cc(-c3ccc(Br)cc3)nc2c2ccccc12,7.1%,16,2%,-44%
COC(=O)c1c(C(=O)OC)c2cc(C)ccn2c1Cl,-0.2%,5,0%,-5%
CC1CCCCC1NC(=O)CSc1nnc(CN2CCOCC2)n1C (centres undefined),-0.3%,-11,?,-4%
COc1ccc2cc(S(=O)(=O)N3CCCCC3)ccc2c1S(=O)(=O)N1CCCCC1,0.4%,-11,-8%,17%
CCCOc1ccccc1C1CC(=O)Nc2cc3c(cc21)OCCO3 (centres undefined),-0.6%,1,-13%,29%

# Part of the list above, with values under each structure.
# Below each compound – Rango-impB inh | GLA inh pH 4.5 | Rango release inh | miR-21 reporter
- CCCOc1ccccc1C1CC(=O)Nc2cc3c(cc21)OCCO3 (centres undefined)
    -0.6% | 1 | -13% | 29%
- CCOC(=O)/C=C/c1ccccc1S(=O)(=O)NC(C)(C)C
    -0.5% | · | -10% | ·

# Returning to the listing; the 2 compounds before the break are reprinted first.
SMILES,Rango-impB inh,GLA inh pH 4.5,Rango release inh,miR-21 reporter
COc1ccc2cc(S(=O)(=O)N3CCCCC3)ccc2c1S(=O)(=O)N1CCCCC1,0.4%,-11,-8%,17%
CCCOc1ccccc1C1CC(=O)Nc2cc3c(cc21)OCCO3 (centres undefined),-0.6%,1,-13%,29%
CC1(C)CC(=O)C=C(Nc2ccc(F)c(Cl)c2)C1,-0.6%,·,9%,3%
c1ccc(-c2oc3ncnc(N4CCOCC4)c3c2-c2ccccc2)cc1,·,-1,·,-26%
N#Cc1cc(Oc2ccc3ccccc3c2)c(-n2nnc3ccccc32)cc1C#N,0.0%,4,-5%,-2%
C=CCn1cccc(C(=O)Nc2ccc(SC)cc2)c1=O,-0.7%,·,1%,-27%
O=c1c2c(nc3n1CCCCC3)sc1c(O)cccc12,1.1%,2,29%,8%
CCOc1ccc(NC(=O)CCN2CCN(c3ccccc3OC)CC2)cc1,-0.8%,2,1%,-5%
CCCCCSc1nnc(-c2ccccc2N)c(=O)[nH]1,2.3%,5,1%,-28%
O=[N+]([O-])c1ccc(N/N=C/c2cccc(O)c2O)c(S(=O)(=O)N2CCOCC2)c1,0.4%,-1,?,-13%
C/C(CC(C)C)=N\Oc1nc(C)cc(C)n1,0.8%,-17,-4%,-8%
CCN(CC)CCCN1C=C2C(=O)C(C)(OC(=O)CCC(=O)OC)C(=O)C(Br)=C2C=C1c1ccc(OC)cc1 (centres undefined),?,6,?,·
O=c1c(-c2ccc(Br)cc2)[n+]([O-])c2ccccc2n1OCc1ccccn1,0.7%,11,0%,-4%
CNc1nc(N(C)C)nc(N(C)C)n1,1.4%,·,23%,-2%
Cc1nnc(SCC(=O)N2CCCC2)n(N)c1=O,8.1%,-24,1%,1%
C=C(C)[C@H]1CC=C(C)C(=O)C1,0.9%,-3,-4%,·
O=C(c1cc(-c2ccco2)on1)N1CCc2ccccc2C1,-5.2%,1,1%,-28%
COc1cc(NC(=S)NCCc2ccccc2)c(OC)cc1NC(=O)CC(C)C,1.8%,-3,0%,1%
Cc1ccc2cccnc2c1N,-0.3%,-9,-3%,4%
N#Cc1ccc(NC2c3ccccc3CC2O)cc1 (centres undefined),1.5%,·,21%,·
CCOC(=O)c1sc(-c2cccs2)nc1C,0.4%,7,18%,-42%
NC(=O)c1cc2cc(Cl)ccc2oc1=O,-0.8%,-4,-14%,-9%
CCc1ccc(CN2CCN(S(=O)(=O)Cc3ccccc3)CC2)cc1,4.8%,-5,-6%,3%
O=S(=O)(NCCOc1ccccc1F)c1cccc(Br)c1,1.3%,·,6%,·
O=C(O)c1ncn(Cc2ccccc2)c1C(=O)O,1.0%,8,9%,-1%
Cc1oc(C)c2c(=O)ccc3c(c12)OC(N)=C(C#N)C3c1ccccc1Cl (centres undefined),?,-6,?,1%
C=CCn1c2ccccc2c2nnc(SCN3C(=O)c4ccccc4C3=O)nc21,-6.5%,2,13%,-1%

# Single records, from the list above.
# O=S(=O)(NCCOc1ccccc1F)c1cccc(Br)c1 as listed: Rango-impB inh = 1.3%; GLA inh pH 4.5 = ·; Rango release inh = 6%; miR-21 reporter = ·
# COc1cc(NC(=S)NCCc2ccccc2)c(OC)cc1NC(=O)CC(C)C as listed: Rango-impB inh = 1.8%; GLA inh pH 4.5 = -3; Rango release inh = 0%; miR-21 reporter = 1%

# Later entries:
SMILES,Rango-impB inh,GLA inh pH 4.5,Rango release inh,miR-21 reporter
CNS(=O)(=O)c1cccc(C(=O)OCC(=O)N(Cc2ccccc2)C(C)(C)C)c1,-0.4%,1,11%,-4%
C[C@@H]1C[C@H]2[C@@H]3CCC4=CC(=O)C=C[C@]4(C)[C@@]3(F)[C@@H](O)C[C@]2(C)[C@@]1(O)C(=O)CO,-2.0%&-1.9%,·,1%&0%,·
CN(C)CCCN1C(=O)C(=O)/C(=C(/O)c2ccncc2)C1c1cccnc1 (centres undefined),-1.3%,-4,-2%,-3%
COc1ccc(CN2CCc3ccc(NC(=O)CCc4ccccc4OC)cc3C2)c(O)c1,-5.1%,·,-24%,20%
O=c1c2c3c(sc2nc2sc(CN4CCCCC4)cn12)CCCC3,·,6,·,-14%
O=C(CCCc1cccs1)NCCc1c[nH]c2ccccc12,3.8%,·,7%,-12%
O=C(NCC1CCCO1)c1ccccc1NS(=O)(=O)c1cccs1 (centres undefined),-0.4%,·,8%,1%
COc1ccc(-n2nc(C(=O)NCC(=O)Nc3ccccn3)c3ccccc3c2=O)cc1Cl,-3.0%,11,0%,0%
CCOC(=O)Cc1cc(=O)[nH]c(/N=C(/NC(=O)c2ccccc2)Nc2ccccc2C(F)(F)F)n1,-6.1%,-1,-17%,-1%
CC(=O)N1N=C(c2cccc(O)c2)CC1c1cccs1 (centres undefined),0.8%,·,-4%,1%
CCn1cc(C(=O)NCCCN2CC(C)CC(C)C2)c(=O)c2cc(S(=O)(=O)N(C)C)ccc21 (centres undefined),?,-9,-11%,-7%
COc1ccccc1-n1c(SCC(N)=O)nnc1-c1ccc(S(=O)(=O)N2CCCCC2)cc1,-2.1%,-12,3%,-2%
COc1ccc(NC(=O)C2CCN(S(=O)(=O)c3cccs3)CC2)cc1OC,-5.7%,·,12%,·
CC(C)c1ccc(N(C(=O)c2snc(C(N)=O)c2N)C(C(=O)NCC2CCCO2)c2ccc(N(C)C)cc2)cc1 (centres undefined),-3.0%,·,4%,?
COc1ccccc1CNS(=O)(=O)c1ccc(C)cc1,1.4%,-14,-7%,6%
CCN(C(=O)CSc1nc2n[nH]c(C)c2c(=N)n1-c1ccc(Cl)c(C)c1)c1cccc(C)c1,5.7%,·,?,1%
COc1ccc(-n2c(SCC(=O)N3CCCC3)nc3ccccc3c2=O)cc1,·,8,·,0%
CCc1cc2c(=O)c(-c3nc4ccccc4[nH]3)coc2c(CN2CCCCC2C)c1O (centres undefined),0.0%,9,2%,-1%
Cc1ccc(Cn2c(=N)c(S(=O)(=O)c3ccc(C)cc3)cc3c(=O)n4ccccc4nc32)cc1,?,·,-3%,-4%
CCN1C(=O)CC(Sc2ccccc2N)C1=O (centres undefined),0.2%,1,-20%,-5%
CC(C)(C)Cc1nnc(NS(C)(=O)=O)s1,1.9%,·,-6%,·
O=C(CC1C(=O)NCCN1CCCc1ccccc1)NCCc1ccccc1F (centres undefined),?,·,-15%,-4%
COc1ccc2c(c1)C(=O)CC(c1ccc(OC)c(OC)c1)O2 (centres undefined),-2.3%,·,-8%,1%
CCc1c(C)sc(NC(=O)OC)c1C(N)=O,3.2%,4,1%,-2%
CC(C)CC(=O)Nc1c2c(nn1-c1ccc([N+](=O)[O-])cc1)CS(=O)(=O)C2,5.4%,·,28%,-33%
# Going on with the list:
SMILES,Rango-impB inh,GLA inh pH 4.5,Rango release inh,miR-21 reporter
OC(COc1cccc2ccccc12)CN1CCN(c2ccccc2Cl)CC1 (centres undefined),4.0%,-2,2%,-7%
CN1CCN(c2ccc(S(=O)(=O)N3CCCCC3)cc2NC(=O)c2ccc(C#N)cc2)CC1,3.3%,-3,36%,-6%
CC(CN1CCCC1)OC(=O)c1ccccc1Cl (centres undefined),2.4%,·,-7%,1%
Cc1cc(CNC(=O)C(C)n2cc([N+](=O)[O-])cn2)c2ccccc2n1 (centres undefined),2.0%,2,-5%,5%
COc1ccc(C(=O)NC(=S)NCc2ccc(-c3nc4ccccc4o3)cc2)cc1OC,0.5%,-10,0%,-8%
O=C(N/C(=C/c1cn(-c2ccccc2)nc1-c1ccccc1)C(=O)N1CCOCC1)c1ccccc1,·,-1,·,-1%
COc1cc(/C=C/C(=O)OC(C)C(=O)c2ccccc2)cc(OC)c1OC (centres undefined),0.3%,·,-4%,·
CCOC(=O)Cn1nc(C)c(NC(=O)COc2ccc(F)cc2F)c1C,·,2,·,-1%
CC(=O)Nc1cc2c3ccccc3ccc2c2ccccc12,-6.0%,·,-9%,·
O=C(CNC(=O)c1ccco1)OCc1ccc(Cl)cc1,-4.5%,-5,8%,0%
CCC(C)(C)C(=O)Nc1cccc(Cl)c1C,3.9%,-16,6%,-1%
O=c1[nH]c(=O)n(Cc2ccco2)c2c1C(C(F)(F)F)(C(F)(F)F)N=C(CCC1CCCCC1)N2,0.1%,-3,-13%,-16%
Cc1nc2sc(C(c3cccs3)N3CCC(C(N)=O)CC3)c(O)n2n1 (centres undefined),-1.8%,4,6%,-1%
Cc1ccccc1Nc1nc(N)nc(COC(=O)CCNS(=O)(=O)c2ccccc2)n1,-0.6%,·,?,·
Cc1cc(C(=O)COC(=O)c2ccccc2NCCO)c(C)n1CC1CCCO1 (centres undefined),1.7%,·,-12%,-14%
CCn1c2ccccc2c2nc3cc(C(=O)O)ccc3nc21,?,-8,?,-82%
CCN(c1ccc(NC(=O)CCNC(=O)c2ccco2)cc1)C(C)C,0.6%,5,-7%,-14%
